Screens deposited in PubChem BioAssay by Southern Research Specialized Biocontainment Screening Center.
Mtb bLac sens: beta-lactam sensitization of Mtb H37Rv | 0.27% of 330,000 active | AID 434955 | inhibition, % at 25 µM | M. tuberculosis H37Rv growth with meropenem, percent inhibition; hits of this screen are not shown here;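 active = about 74% or more and at least 40 points above the plate without the antibiotic, then above 30% in a dose series; inconclusive = first-round hits that could not be retested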;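 also: growth measured after seven days incubation then overnight dye step; 0% = bacteria only wells and 100% = bacteria with antibiotic; twin plates without the antibiotic show which effects depend on it; some results filed as inactive read as strong as hits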
* hit, by the source's call; ? = inconclusive. A portion of the library; the hit share may differ from the screen's.

SMILES | Mtb bLac sens
COc1ccc(CCN(C)C(=O)c2c(C)noc2C)cc1OC | 5
O=C(Cn1c(NCCO)nc2ccccc21)Nc1cccc(S(=O)(=O)N2CCCC2)c1 | -2
CC1CCC(NC(=O)CN2C(=O)c3ccccc3S2(=O)=O)CC1 (stereo not drawn) | 0
CCOc1ccc(CN(C)C(=O)CN2C(=O)NC(c3ccccc3)(c3ccccc3)C2=O)cc1 | -4
CC(=O)N1CCN(S(=O)(=O)c2cccc(C(=O)OCC(=O)N(CCC#N)c3ccc(F)cc3)c2)CC1 | -6
Cc1cc(C(=O)CN2C(=O)C(=O)N(CCC3=CCCCC3)C2=O)c(C)n1C | -3
Cc1ccccc1-n1c(SCC(=O)N2CCN(c3ccccn3)CC2)nnc1N1CCOCC1 | -4
C[C@]12CCC3C(CC[C@H]4C[C@@H](O)CC[C@]34C)C1C[C@@H](Br)[C@H]2O (stereo partly drawn) | 1
Cc1ccc(C(=O)Nc2c(C)n(C)n(-c3ccccc3)c2=O)cc1S(=O)(=O)N1CCCCC1 | 3
COC(=O)C1=C(c2cccc(C#N)c2)C[C@@H]2CC[C@H]1N2C(=O)NC1Cc2ccccc2C1 | -5
O=C(c1ccc(Cl)cc1)N1CCC(C(=O)N2CCN(c3ncccn3)CC2)CC1 | -3
CCCn1c(SCC(=O)N(C)C2CCS(=O)(=O)C2)nc2sc3c(c2c1=O)CCC3 (stereo not drawn) | -1
CC(CCc1ccccc1)NC(=O)COC(=O)C(CCC(N)=O)NC(=O)c1ccc(F)cc1 (stereo not drawn) | 1
O=C(COC(=O)CNC(=O)C1CCCCC1)Nc1ccccc1Cl | -1
CC1CCN(C(=O)CN2C(=O)C(=O)N(C)C2=O)c2ccccc2S1 (stereo not drawn) | 52
CCCN(CC(=O)Nc1ccc(F)c(F)c1F)C(=O)Cc1ccc(S(=O)(=O)N2CCOCC2)s1 | -1
COC(=O)C1=C(c2ccc(F)cc2OCc2ccccc2)C[C@@H]2CC[C@H]1N2C(=O)NC(C)C | 8
O=C1OC[C@@H]2CCCN2C(=O)[C@H](CC(=O)N(CCO)Cc2ccccc2)C/C=C\CC[C@H]1Cc1ccc(F)cc1 | -6
CCOc1cc2c(cc1OCC)CN(CC(=O)Nc1ccccc1C(=O)NC1CC1)CC2 | -12
COc1cc(/C=C/C(=O)O[C@H]2[C@H](O[C@@H]3O[C@@H](C)[C@H](O)[C@@H](O)[C@H]3O)[C@@H](O)[C@H](OCCc3ccc(O)c(OC)c3)O[C@@H]2CO)ccc1O | -3
COc1ccc(NC(=O)C2CCCCC2)cc1S(=O)(=O)N1CCOCC1 | -6
COc1ccccc1N(CC(=O)NC1CCCCC1C)S(=O)(=O)c1cccs1 (stereo not drawn) | 6
Cc1cc(C)n(CCN(C)C(=O)C2CCC(=O)N(CCN3CCOCC3)C2)n1 (stereo not drawn) | 2
CC(C)n1cc(NC(=O)COc2ccccc2Cl)cn1 | 0
O=C(c1ccncc1)N1CCN(S(=O)(=O)c2cccc(C(F)(F)F)c2)CC1 | 4

Arranged by count of non-hydrogen atoms (low to high): part of the list above
SMILES | Mtb bLac sens
CC(C)n1cc(NC(=O)COc2ccccc2Cl)cn1 | 0
C[C@]12CCC3C(CC[C@H]4C[C@@H](O)CC[C@]34C)C1C[C@@H](Br)[C@H]2O (stereo partly drawn) | 1
COc1ccc(CCN(C)C(=O)c2c(C)noc2C)cc1OC | 5
O=C(COC(=O)CNC(=O)C1CCCCC1)Nc1ccccc1Cl | -1
COc1ccc(NC(=O)C2CCCCC2)cc1S(=O)(=O)N1CCOCC1 | -6
Cc1cc(C(=O)CN2C(=O)C(=O)N(CCC3=CCCCC3)C2=O)c(C)n1C | -3
Cc1cc(C)n(CCN(C)C(=O)C2CCC(=O)N(CCN3CCOCC3)C2)n1 (stereo not drawn) | 2
CCCn1c(SCC(=O)N(C)C2CCS(=O)(=O)C2)nc2sc3c(c2c1=O)CCC3 (stereo not drawn) | -1
O=C(Cn1c(NCCO)nc2ccccc21)Nc1cccc(S(=O)(=O)N2CCCC2)c1 | -2
COC(=O)C1=C(c2cccc(C#N)c2)C[C@@H]2CC[C@H]1N2C(=O)NC1Cc2ccccc2C1 | -5
Cc1ccc(C(=O)Nc2c(C)n(C)n(-c3ccccc3)c2=O)cc1S(=O)(=O)N1CCCCC1 | 3
CCOc1ccc(CN(C)C(=O)CN2C(=O)NC(c3ccccc3)(c3ccccc3)C2=O)cc1 | -4
CC(=O)N1CCN(S(=O)(=O)c2cccc(C(=O)OCC(=O)N(CCC#N)c3ccc(F)cc3)c2)CC1 | -6
O=C1OC[C@@H]2CCCN2C(=O)[C@H](CC(=O)N(CCO)Cc2ccccc2)C/C=C\CC[C@H]1Cc1ccc(F)cc1 | -6
COc1cc(/C=C/C(=O)O[C@H]2[C@H](O[C@@H]3O[C@@H](C)[C@H](O)[C@@H](O)[C@H]3O)[C@@H](O)[C@H](OCCc3ccc(O)c(OC)c3)O[C@@H]2CO)ccc1O | -3

(more compounds)
SMILES | Mtb bLac sens
CC(=O)c1cccc(OCC(=O)Nc2ccccc2N2CCOCC2)c1 | 4
COc1ccc([C@@H]2CC=C(C(=O)O)[C@H](c3ccc(F)cc3)N2S(=O)(=O)c2ccc(C)cc2)cc1OC | -2
CC(C)N(C(=O)CN1CCN(C(=O)C2COc3ccccc3O2)CC1)C(C)C (stereo not drawn) | 5
Cc1cc(C(F)F)nn1CC(=O)NC1CCCC1 | ?
COc1ccc(/C=C/C(=O)NNC(=O)c2ccncc2)c(OC)c1 | -2
CCC(=O)Nc1ccc(NC(=O)CCc2ccccc2)cn1 | 22
Cc1ccccc1Cc1c(C)nc2nc(SCC(=O)NCCCN3CCCC3)nn2c1C | -15
CC(=O)Nc1ccc(/C=C(\C#N)S(=O)(=O)c2ccc(C)cc2)cc1 | -4
COc1ccc(NC(=O)C2CCN(S(=O)(=O)c3cccc4nonc34)CC2)cc1 | -1
O=C(CCNC(=O)c1ccc(Br)cc1)NNC(=O)COc1ccccc1F | -11
NC(=O)c1cc(Cl)ccc1OCC(=O)NC1CC1 | -2
Cc1oc(-c2ccccc2)nc1C(=O)OCC(=O)NCc1ccc(Cl)cc1 | 1
CN(CC(=O)N(C)CC(=O)Nc1c(Cl)cccc1Cl)Cc1ccccc1F | -6
C[C@H](NC(=O)c1ccc(C(C)(C)C)cc1)C(=O)N1CCN(C/C=C/c2ccccc2)CC1 | 47
NS(=O)(=O)c1ccc(NC(=O)c2ccc(S(=O)(=O)N3CCCCC3)cc2)cc1 | -5
COc1ccccc1CNC(=O)COC(=O)/C=C/c1ccc2c(c1)OCO2 | 6
COc1ccc2c(CC(=O)OCc3nc4ccsc4c(=O)[nH]3)coc2c1 | -9
CCc1nnc2n1N=C(c1ccc(Cl)cc1Cl)CS2 | 1
Cc1ccc(S(=O)(=O)CCC(=O)OC(C)c2nnc(-c3cccs3)o2)cc1 (stereo not drawn) | 1
Cc1cc(C)n2nc(SCC(=O)N(CCC#N)c3ccc(F)cc3)nc2n1 | 1
Cc1ccc(NC(=O)CCC(=O)c2ccc(Cl)s2)nc1 | 10
COc1ccccc1C(=O)NCCC(=O)NCC1CCCCC1 | 3
CCOc1ccccc1NC(=O)COC(=O)C1CCC(=O)N1 (stereo not drawn) | -6
Cc1cc(=O)oc2cc(OC(C)C(=O)NC3(C#N)CCCCC3)ccc12 (stereo not drawn) | -7
O=C(C1=COCCO1)N1CCN(S(=O)(=O)c2cccc(F)c2)CC1 | -4
Remaining list, next part:
SMILES | Mtb bLac sens
O=C(CN1c2cccc3cccc(c23)S1(=O)=O)N1CCN(c2ccccc2)CC1 | 0
O=C(COC(=O)/C=C/c1cccc(Br)c1)NC1CCCCC1 | 6
CCC(=O)NC(C)c1cc(Cl)c2ccccc2c1O (stereo not drawn) | 0
CC1CCCN(C(=O)Cn2c(=O)oc3cc(S(=O)(=O)N4CCCCC4)ccc32)C1 (stereo not drawn) | 4
Nc1cc(=O)[nH]c(SCC(=O)Nc2cc(S(=O)(=O)N3CCCCC3)ccc2Cl)n1 | -7
O=C(OCC(=O)N1CCOCC1)c1ccc2ccccc2c1 | 3
O=C(CCc1nc2ccccc2c(=O)[nH]1)Nc1nnc(SCc2ccccc2F)s1 | -2
Cc1ccc(C(=O)NNC(=O)c2ccc(Br)s2)cc1S(=O)(=O)N1CCOCC1 | -10
CC1CCCN(C(=O)Cn2c3ccccc3c3nc4n(c(=O)c32)CCS4)C1 (stereo not drawn) | 3
O=C(Nc1ccccc1)c1cc([N+](=O)[O-])ccc1N1CCCCC1 | -4
O=C(COC(=O)c1ccc(F)c(S(=O)(=O)N2CCOCC2)c1)Nc1ccc2[nH]c(=O)[nH]c2c1 | 0
COc1ccc(C(C)(C)C)cc1NC(=O)CCN1C(=O)C2CCCCC2C1=O (stereo not drawn) | 1
O=C1CCCN1C(=O)CSc1ccc2ccccc2n1 | 1
O=C(COC(=O)c1cc(S(=O)(=O)N2CCOCC2)ccc1F)Nc1ccc2c(c1)OCO2 | -9
Cn1c(N)c(C(=O)COC(=O)CNC(=O)c2ccccc2Cl)c(=O)n(C)c1=O | -7
Cc1occc1C(=O)NNC(=O)c1ccccc1[N+](=O)[O-] | -4
O=c1c(O)c(-c2cc(O)c(O)c(O)c2)oc2cc(O)cc(O)c12 | 9
Cc1noc(C)c1C(=O)OC(C)C(=O)N(C)c1ccccc1 (stereo not drawn) | -2
COc1ccc(C(c2c(C)n(C)n(-c3ccccc3)c2=O)c2c(C)n(C)n(-c3ccccc3)c2=O)cc1OC | -1
O=C(COC(=O)CN1C(=O)C2CCCCC2C1=O)NCc1ccc(Cl)cc1Cl (stereo not drawn) | -5
CC(C)(C)NC(=O)C1CCCN(S(=O)(=O)c2ccc(-n3cnnn3)cc2)C1 (stereo not drawn) | -6
C=CCn1c2ccccc2c(=O)c2cc(C#Cc3cc(OC)cc(OC)c3)ccc21 | 9
O=C(CSc1nnc(C2CC2)n1C1CC1)c1cccs1 | -9
O=C(COC(=O)c1ccccc1O)NCCc1c[nH]c2ccccc12 | 3
Cc1c(C(C)C[C@H](C)O)oc(=O)c2c1Oc1c(C)c(C(C)C[C@H](C)O)oc(=O)c1C2 (stereo partly drawn) | 2
More compounds
SMILES | Mtb bLac sens
COc1ccc(-n2nnnc2SCC(=O)NC2CCS(=O)(=O)C2)cc1 (stereo not drawn) | 6
CSCCC(NC(=O)COc1ccccc1)C(=O)N(C)Cc1ccc(F)cc1 (stereo not drawn) | 1
COc1ccc2c3c1O[C@H]1C(=O)CC[C@H]4[C@@H](C2)N(C)CC[C@]314 | 3
COc1ccc(S(=O)(=O)N(C)C[C@@H]2Oc3ccc(NS(=O)(=O)c4cn(C)cn4)cc3C(=O)N([C@@H](C)CO)C[C@@H]2C)cc1 | 2
COc1cccc(NC(=O)COC(=O)C2CCCCC2)c1 | 1
O=C(COC(=O)CN1C(=O)c2ccccc2C1=O)Nc1ccccc1 | 3
Cc1ccc(S(=O)(=O)N2[C@@H](c3ccc4c(c3)OCO4)C(C(=O)O)=C[C@H]2CC2CCCC2)cc1 | 2
COCc1c(C(=O)NCCOc2ccc(Cl)cc2)oc2ccccc12 | 20
Cn1c(CN2CCOCC2)nnc1SCC(=O)Nc1cc(Cl)ccc1Cl | -4
O=C(CN1C(=O)NC2(CCc3ccccc32)C1=O)NCCc1ccccc1 (stereo not drawn) | -6
C[C@H]1CN([C@@H](C)CO)C(=O)Cc2cc(NC(=O)Cc3cn(C)c4ccccc34)ccc2O[C@@H]1CN(C)S(=O)(=O)c1cn(C)cn1 | -2
O=C1c2c(O)cccc2Cc2cccc(O)c21 | -1
Oc1ccc(-c2nnc(SCc3ccccc3)o2)cc1 | -2
CN(c1ccccc1)S(=O)(=O)c1ccc(C(=O)NCC(c2ccco2)N2CCCCC2)cc1 (stereo not drawn) | 5
CC1(c2ccc(Cl)cc2)NC(=O)N(CC(=O)NCc2ccc(F)cc2)C1=O (stereo not drawn) | 2
COc1ccc(C(=O)OCC(=O)c2ccc(CNC(C)=O)s2)cc1 | -6
CC(C)c1ccc(NC(=O)C2CCCN2S(=O)(=O)c2ccccc2F)cc1 (stereo not drawn) | 0
O=C(Nc1ccc([N+](=O)[O-])cc1)c1ccccc1 | 3
O=C(NC1CCCC1)c1cccc(S(=O)(=O)N2CCCC2)c1 | 2
CC(Cc1ccccc1)NCCC(c1ccccc1)c1ccccc1 (stereo not drawn) | 97
O=C1C=C(c2cc3ccccc3s2)C[C@@H](c2ccc3c(c2)OCO3)C1 | -4
CN(CC(=O)Nc1ccc(Cl)c(C(F)(F)F)c1)C(=O)c1ccc2c(c1)NC(=O)CS2 | 0
CCCCCCC[C@@H](C/C=C/CCC(=O)N(C)C/C(=C/Cl)C/C(=C\C(=O)N1CC(OC)=CC1=O)OC)OC | -10
O=C(COC(=O)c1ccco1)Nc1ccc(Cl)cn1 | 7
CCOc1ccc(/C=C2\SC(=S)N(CCCC(=O)NCCCN3CCOCC3)C2=O)cc1 | -2
Remaining list, next part
SMILES | Mtb bLac sens
O=C(COC(=O)c1nc(Cl)ccc1Cl)NC1CCCCC1 | 3
O=C(C[C@H]1C/C=C\CC[C@H](Cc2ccc(F)cc2)C(=O)OC[C@@H]2CCCN2C1=O)N[C@H](CO)Cc1ccccc1 | 7
COc1ccccc1N(C)S(=O)(=O)c1ccc(C(=O)Nc2nccs2)cc1 | 3
COc1c(F)cccc1C1=CC(=O)C[C@H](c2ccc3c(c2)OCO3)C1 | 16
O=C(CN1C(=O)C(=O)N(Cc2ccccc2)C1=O)Nc1ccc(OC(F)F)cc1 | 1
COc1ccc(-c2sc3ccccc3c2/C=C/c2ccc(N)cc2)cc1 | -3
Cc1c(C)c2c(c(C)c1O)CCC(C)(C(=O)O)O2 (stereo not drawn) | 7
CC1CCCC(NC(=O)COC(=O)c2cc(=O)[nH]c3ccccc23)C1C (stereo not drawn) | -1
O=C(O)c1ccccc1C(=O)OCCc1cc2ccccc2c(=O)o1 | -2
COCCN1CC(C(=O)NCc2ncccc2C)CCC1=O (stereo not drawn) | -2
Oc1cc(-c2ccc(N3CCCCC3)nc2)cc2cccnc12 | 59
O=C(c1ccc(F)c(S(=O)(=O)N2CCOCC2)c1)N1CCN(c2ncccn2)CC1 | -11
